Mtb MbtI inh = MbtI salicylate synthase inhibitors, primary screen, biochemical, fluorescence intensity; P9WFX0; purified MbtI enzyme, fluorescence intensity read-out; inhibition, %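 (about 17 µg/mL by stock and volumes)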; 0.89% of 100,000 active;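 active = above 50% in both replicates, above 80% if mildly self-fluorescent; inactive = the rest, strongly fluorescent compounds included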;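 also: 0% = mean of negative and 100% = mean of positive controls; one replicate is shown; some compounds called inactive have numbers as strong as hits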
PV pol inh = poliovirus RdRp elongation inhibitors, primary screen, biochemical, fluorescence polarization, total intensity; 0.66% of 150,000 active; poliovirus polymerase elongation; active compounds read low; % elongation, % (compound at 16.7 µg/mL); Genome polyprotein (Poliovirus type 1 (strain Mahoney)), P03300; in the data active = % elongation below about 90%; also: some results filed as inactive read as strong as hits
Target sequence (P03300 1749-2209 limits assumed): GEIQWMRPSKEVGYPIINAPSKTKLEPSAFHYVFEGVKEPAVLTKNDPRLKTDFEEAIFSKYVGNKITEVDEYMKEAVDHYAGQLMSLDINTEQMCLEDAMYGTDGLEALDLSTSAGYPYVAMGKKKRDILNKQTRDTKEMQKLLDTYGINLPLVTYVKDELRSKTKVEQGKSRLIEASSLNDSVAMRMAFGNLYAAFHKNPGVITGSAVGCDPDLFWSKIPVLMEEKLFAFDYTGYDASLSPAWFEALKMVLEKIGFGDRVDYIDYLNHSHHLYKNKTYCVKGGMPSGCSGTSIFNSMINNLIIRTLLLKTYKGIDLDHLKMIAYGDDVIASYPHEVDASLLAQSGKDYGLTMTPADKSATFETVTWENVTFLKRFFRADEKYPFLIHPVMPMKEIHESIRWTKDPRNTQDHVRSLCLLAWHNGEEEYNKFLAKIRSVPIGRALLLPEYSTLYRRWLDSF
Mtb MenB inh = M. tuberculosis MenB inhibitors, primary screen, biochemical, absorbance; MenB enzyme assay, absorbance read-out; some hits fall short of the stated cut; AID 540299, 2011; 0.43% of 100,000 active; 1,4-dihydroxy-2-naphthoyl-CoA synthase (Mycobacterium tuberculosis (strain ATCC 25618 / …; inhibition, %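 (about 12 µg/mL by stock and volumes)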;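 active = mean of two replicates above 30%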;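 also: 0% = no compound and 100% = wells with inactive enzyme; the first replicate is given; strong numbers were not always called active; inactives centre near -10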
Target sequence (P9WNP5 whole entry, looked up): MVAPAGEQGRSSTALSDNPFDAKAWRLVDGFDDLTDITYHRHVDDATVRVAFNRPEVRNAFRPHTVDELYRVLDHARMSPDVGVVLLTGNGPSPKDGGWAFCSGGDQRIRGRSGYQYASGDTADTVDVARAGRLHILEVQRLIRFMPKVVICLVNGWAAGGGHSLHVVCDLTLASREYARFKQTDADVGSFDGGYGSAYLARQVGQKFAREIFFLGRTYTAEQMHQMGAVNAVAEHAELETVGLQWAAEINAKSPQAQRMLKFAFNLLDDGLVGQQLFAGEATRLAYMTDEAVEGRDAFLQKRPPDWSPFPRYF
PV pol inh intensity = recorded beside PV pol inh, whose call it bears; % elongation; measured here: total intensity read-out; formula for this scale not given here;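 total fluorescence in place of polarization; lower means less elongation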
* hit, by the source's call. Rows are unselected; about 1.9% have a hit in one of these screens.

For CC1CCC(N2CCN(Cc3cccc(F)c3)CC2)CC1 (stereo not given) the results were Mtb MbtI inh 8, PV pol inh 102, Mtb MenB inh -4 and PV pol inh intensity 101.
Screening CC1Cc2ccccc2N1CC(=O)Nc1ccccc1Cl (stereo not given) returned Mtb MbtI inh -23, PV pol inh 105, Mtb MenB inh -14 and PV pol inh intensity 113.
`COc1cccc(-n2nnnc2S(=O)(=O)Cc2ccccc2)c1` gave Mtb MbtI inh 53, PV pol inh 100, Mtb MenB inh 4 and PV pol inh intensity 92.
CCCCC1(C)OC(=O)C(=Cc2ccc(O)cc2)C(=O)O1 (stereo not given) was read as Mtb MbtI inh 9, PV pol inh 101, Mtb MenB inh 0 and PV pol inh intensity 103.
For COc1ccc(CCNC(=O)c2ccc3c(=O)n(CC4CCCO4)c(=S)[nH]c3c2)cc1OC (stereo not given) the results were Mtb MbtI inh -7, PV pol inh 101, Mtb MenB inh -24 and PV pol inh intensity 99.
Screening O=c1[nH]c2ccc(Cl)cc2c(-c2ccccc2)c1N1CCCC1 returned PV pol inh 106, Mtb MenB inh 2 and PV pol inh intensity 109.
Cc1cc(NC(=O)c2ccccc2F)cc(C)c1OCC(=O)N1CCOCC1 was read as Mtb MbtI inh 3, PV pol inh 102, Mtb MenB inh 13 and PV pol inh intensity 100.
COc1ccc(NC(=O)c2sc3nc(C)nc(N(C)c4ccc(C(C)C)cc4)c3c2C)c(OC)c1 was read as Mtb MbtI inh 1, PV pol inh 99, Mtb MenB inh -10 and PV pol inh intensity 106.
For O=C(O)CSc1c2c(nc3cc(C(=O)Nc4cccc(C(F)(F)F)c4)ccc13)CCCC2 the results were Mtb MbtI inh -2, PV pol inh 103, Mtb MenB inh -22 and PV pol inh intensity 108.
CC(C)OC12Oc3ccccc3C=C1N1CCC2CC1 (stereo not given) was read as Mtb MbtI inh -4, PV pol inh 101, Mtb MenB inh -19 and PV pol inh intensity 101.
Screening O=C(CC12CC3CC(CC(C3)C1)C2)Nc1cccc(-c2nn3cnnc3s2)c1 returned Mtb MbtI inh 7, PV pol inh 99, Mtb MenB inh -13 and PV pol inh intensity 105.
COc1ccccc1C(=O)CSc1ccccn1 was read as Mtb MbtI inh 15, PV pol inh 101 and PV pol inh intensity 97.
Screening COc1ccc(OCCn2cnc3ccccc32)cc1 returned Mtb MbtI inh -11, PV pol inh 100, Mtb MenB inh -10 and PV pol inh intensity 103.
Screening Cc1c(C=C2C(=O)c3ccccc3C2=O)cc(C#N)n1C returned Mtb MbtI inh -7, PV pol inh 102 and PV pol inh intensity 105.
Screening Cc1nc2c3ccccc3nc(NN3C(=O)CCC3=O)n2n1 returned Mtb MbtI inh 9, PV pol inh 100, Mtb MenB inh -1 and PV pol inh intensity 100.
Screening COc1ccc(-c2cc(C(=O)NCCN3CCCCCC3)[nH]n2)cc1 returned Mtb MbtI inh -20, PV pol inh 102, Mtb MenB inh 3 and PV pol inh intensity 102.
For CCCCN1CCc2c([nH]c3c(C)cccc23)C1=O the results were Mtb MbtI inh 38, PV pol inh 103, Mtb MenB inh -6 and PV pol inh intensity 109.
For COc1cc(Br)cc2cc(-c3nc(-c4nonc4N)no3)c(=O)oc12 the results were Mtb MbtI inh -16, PV pol inh 104, Mtb MenB inh -5 and PV pol inh intensity 103.
For c1ccc(CN2CCC(=NNc3nncc4ccccc34)CC2)cc1 the results were Mtb MbtI inh 3, PV pol inh 97, Mtb MenB inh -4 and PV pol inh intensity 101.
CC(C)Oc1ccc(-c2nn(-c3ccccc3)cc2/C=C(\C#N)S(=O)(=O)c2ccccc2)cc1 was read as Mtb MbtI inh 114, PV pol inh 98, Mtb MenB inh -3 and PV pol inh intensity 103.
Screening CCS(=O)(=O)N1Cc2ccccc2CC1C(=O)N1CCN(S(=O)(=O)c2ccc(C)cc2)CC1 (stereo not given) returned Mtb MbtI inh -75 and Mtb MenB inh 0.
N#Cc1c(=O)c2nc(NCCc3ccccc3)ncc2n2c(=O)c3cc(Br)ccc3[nH]c12 was read as Mtb MbtI inh -11, PV pol inh 115, Mtb MenB inh -47 and PV pol inh intensity 151.
For O=C(NC1C2CC3CC(C2)CC1C3)c1cccnc1Cl (stereo not given) the results were Mtb MbtI inh -15, PV pol inh 103 and PV pol inh intensity 99.
For COc1cccc(/C=C2/SC(=O)N(C)C2=O)c1O the results were Mtb MbtI inh -12, PV pol inh 101, Mtb MenB inh -80 and PV pol inh intensity 102.
Screening CC(C)(C)c1cc(CCC(=O)NN)cc(C(C)(C)C)c1O returned Mtb MbtI inh -9, PV pol inh 102, Mtb MenB inh -5 and PV pol inh intensity 105.
Cc1c(NS(=O)(=O)c2cccc(C(=O)N3CCN(c4ccccc4F)CC3)c2)c(=O)n(-c2ccccc2)n1C was read as Mtb MbtI inh 45, PV pol inh 93, Mtb MenB inh -28 and PV pol inh intensity 85.
`CCC(C)/C(=N\O)c1ccccc1` (stereo not given) gave Mtb MbtI inh -1, PV pol inh 100, Mtb MenB inh 17 and PV pol inh intensity 101.
`O=C(COC(=O)/C=C/c1cccs1)Nc1ccccc1` gave Mtb MbtI inh 5, PV pol inh 100 and PV pol inh intensity 98.
For COc1cccc(NC(=O)Cn2c(C)cc(C)c(C#N)c2=O)c1 the results were Mtb MbtI inh 16, PV pol inh 102, Mtb MenB inh 1 and PV pol inh intensity 104.
`CNS(=O)(=O)c1ccc2oc3ccc(S(=O)(=O)NC)cc3c2c1` gave Mtb MbtI inh 16, PV pol inh 104, Mtb MenB inh -40 and PV pol inh intensity 104.
C=CCNC(=O)c1cc2c(=O)n3ccccc3nc2s1 was read as Mtb MbtI inh 99, PV pol inh 103, Mtb MenB inh -17 and PV pol inh intensity 107.
For COc1cc(-c2nnc(SCc3cc(=O)oc4ccc5ccccc5c34)o2)cc(OC)c1OC the results were Mtb MbtI inh -25, PV pol inh 102, Mtb MenB inh -25 and PV pol inh intensity 107.
COC(=O)c1ccc(-c2nc3ccccc3[nH]2)cc1 was read as Mtb MbtI inh 100, PV pol inh 91, Mtb MenB inh -18 and PV pol inh intensity 96.
`Clc1ccc(Nc2ncnc3c2cnn3-c2ccccc2)cc1` gave Mtb MbtI inh 13, PV pol inh 105, Mtb MenB inh -9 and PV pol inh intensity 109.
N#CC1=C(SCC(N)=O)NC2=C(C(=O)CCC2)C1c1ccco1 (stereo not given) was read as Mtb MbtI inh 20, PV pol inh 102, Mtb MenB inh -37 and PV pol inh intensity 103.
CCCc1nc(C(C#N)c2ccc(F)cc2)c2nnn(Cc3ccccc3)c2n1 (stereo not given) was read as Mtb MbtI inh -5, PV pol inh 102, Mtb MenB inh -61 and PV pol inh intensity 103.
Screening O=c1oc2ccc(Cl)cc2c(=O)n1-c1cccc(C(F)(F)F)c1 returned Mtb MbtI inh -272, PV pol inh 102, Mtb MenB inh -1 and PV pol inh intensity 100.
`Fc1ccc(CN2CCN(Cc3ccccc3)CC2)cc1` gave PV pol inh 98, Mtb MenB inh 10 and PV pol inh intensity 94.
For NC(CO)(CO)COCc1ccccc1 the results were Mtb MbtI inh -8, PV pol inh 105 and PV pol inh intensity 105.
For O=C(COCc1cc(-c2ccco2)on1)NCc1ccccc1 the results were Mtb MbtI inh -5, PV pol inh 101, Mtb MenB inh -26 and PV pol inh intensity 102.
Screening Cc1cc(C)nc(NS(=O)(=O)c2ccc(N3C(=O)c4ccc(C(=O)O)cc4C3=O)cc2)n1 returned Mtb MbtI inh -2, PV pol inh 100, Mtb MenB inh 4 and PV pol inh intensity 100.
For CCSc1nnc(NC(=O)CSc2cn(CCNC(=O)c3ccc(OC)cc3)c3ccccc23)s1 the results were Mtb MbtI inh -2, PV pol inh 103, Mtb MenB inh -28 and PV pol inh intensity 105.
Screening Cc1cc(SCC(=O)N(C)C)n2c(nc3ccccc32)c1C#N returned Mtb MbtI inh -2, PV pol inh 105, Mtb MenB inh -12 and PV pol inh intensity 130.
Screening CN(C)CCN=CC1=C(O)CC(C)(C)CC1=O returned Mtb MbtI inh 27, PV pol inh 100, Mtb MenB inh -17 and PV pol inh intensity 102.
Screening CCCC1COC(Cn2cncn2)(c2ccc(C)cc2)O1 (stereo not given) returned Mtb MbtI inh 3, PV pol inh 99, Mtb MenB inh 0 and PV pol inh intensity 102.
`Nc1cc(C(=O)OCCOc2ccc(Br)cc2)ccc1Cl` gave Mtb MbtI inh 69, PV pol inh 105 and PV pol inh intensity 106.
COc1ccc(-c2csc(NC(=O)CN3CCCC3c3cccs3)n2)cc1 (stereo not given) was read as Mtb MbtI inh 15, PV pol inh 101, Mtb MenB inh -35 and PV pol inh intensity 100.
`O=C1CCCN1CCCNc1nc2ccccc2n2nnnc12` gave Mtb MbtI inh 100, PV pol inh 99, Mtb MenB inh 1 and PV pol inh intensity 111.
Screening COc1ccc(NC(=O)COCC(=O)O)cc1OC returned Mtb MbtI inh 0, PV pol inh 106, Mtb MenB inh -9 and PV pol inh intensity 100.
Screening CC(C)c1ccc(N2CC(C(=O)O)CC2=O)cc1 (stereo not given) returned PV pol inh 102, Mtb MenB inh -13 and PV pol inh intensity 104.

The closing 3 entries of the section above are carried over, then new ones follow:
`O=C1CCCN1CCCNc1nc2ccccc2n2nnnc12` gave Mtb MbtI inh 100, PV pol inh 99, Mtb MenB inh 1 and PV pol inh intensity 111.
Screening COc1ccc(NC(=O)COCC(=O)O)cc1OC returned Mtb MbtI inh 0, PV pol inh 106, Mtb MenB inh -9 and PV pol inh intensity 100.
Screening CC(C)c1ccc(N2CC(C(=O)O)CC2=O)cc1 (stereo not given) returned PV pol inh 102, Mtb MenB inh -13 and PV pol inh intensity 104.
`O=C(/C=C/c1cccs1)Nc1ccc(-c2nnc3n2CCCCC3)cc1` gave Mtb MbtI inh 2, PV pol inh 102 and PV pol inh intensity 106.
`O=C(OCC(=O)C12CC3CC(CC(C3)C1)C2)C1=COCCO1` gave Mtb MbtI inh 5, PV pol inh 101, Mtb MenB inh -3 and PV pol inh intensity 107.
For Cn1c(-c2ccccc2)c(C(=O)COC(=O)c2ccc(-n3cnnn3)cc2)c2ccccc21 the results were Mtb MbtI inh -8, PV pol inh 100, Mtb MenB inh -21 and PV pol inh intensity 109.
For O=C(O)c1c(CNCCc2c[nH]c3ccccc23)c2ccccc2n1Cc1ccccc1 the results were Mtb MbtI inh -1, PV pol inh 105, Mtb MenB inh -22 and PV pol inh intensity 101.
For O=C(NCc1ccsc1)c1ccc2c(c1)OCCCO2 the results were Mtb MbtI inh 2, PV pol inh 106, Mtb MenB inh 21 and PV pol inh intensity 116.
COCC(C)NC(=O)Cn1nc(C)c(NC(=O)c2cc(-c3ccccc3F)no2)c1C (stereo not given) was read as Mtb MbtI inh 15, PV pol inh 99, Mtb MenB inh -6 and PV pol inh intensity 95.
`CCc1ccccc1-n1c(=O)oc2ccc(Cl)cc2c1=O` gave Mtb MbtI inh 37, PV pol inh 102, Mtb MenB inh -1 and PV pol inh intensity 104.
`Cc1ccc(-n2nc(C)c3c(C)cc(=O)oc32)cc1C` gave PV pol inh 106, Mtb MenB inh 0 and PV pol inh intensity 114.
`NCCSCc1ccco1` gave Mtb MbtI inh 0, PV pol inh 101, Mtb MenB inh -33 and PV pol inh intensity 106.
NNC(=O)CCC(=O)Nc1ccccc1 was read as Mtb MbtI inh -18, PV pol inh 104, Mtb MenB inh -6 and PV pol inh intensity 101.

Three compounds drawn at random from the list so far, as already listed:
`Fc1ccc(CN2CCN(Cc3ccccc3)CC2)cc1` gave PV pol inh 98, Mtb MenB inh 10 and PV pol inh intensity 94.
`O=C1CCCN1CCCNc1nc2ccccc2n2nnnc12` gave Mtb MbtI inh 100, PV pol inh 99, Mtb MenB inh 1 and PV pol inh intensity 111.
Screening COc1ccc(OCCn2cnc3ccccc32)cc1 returned Mtb MbtI inh -11, PV pol inh 100, Mtb MenB inh -10 and PV pol inh intensity 103.

Next records follow.
`COCCN1C=C(C(=O)OC)C(c2ccsc2)C(C(=O)OC)=C1` gave Mtb MbtI inh 9, PV pol inh 101, Mtb MenB inh -11 and PV pol inh intensity 102.
CSc1nccc2ccccc12 was read as Mtb MbtI inh -2, PV pol inh 100, Mtb MenB inh 11 and PV pol inh intensity 101.
For Cc1cccc(C(=O)NCC(=O)OCc2ccc(F)cc2)c1 the results were Mtb MbtI inh -5, PV pol inh 103 and PV pol inh intensity 106.
CC(C)(C)SCC(=O)Nc1cc(S(C)(=O)=O)ccc1Cl was read as Mtb MbtI inh -9, PV pol inh 101, Mtb MenB inh 5 and PV pol inh intensity 101.
`Cc1nc(Cl)c(C(=O)N(C)c2ccccc2)c(C)c1Cl` gave PV pol inh 107, Mtb MenB inh -19 and PV pol inh intensity 106.
For O=c1oc2ccccc2cc1-c1cn2cc(Cc3ccccc3Cl)sc2n1 the results were Mtb MbtI inh -27, PV pol inh 100, Mtb MenB inh -2 and PV pol inh intensity 100.
For CN(Cc1nc(-c2ccccc2)no1)C(=O)C12CC3CC(CC(C3)C1)C2 the results were Mtb MbtI inh -1, PV pol inh 101, Mtb MenB inh -18 and PV pol inh intensity 103.

High-throughput results as filed in PubChem.
